TRPML1 blocker = human mucolipin-1 channel inhibition; TRPML1-inducible cells, Ca2+ dye fluorescence, FDSS; stronger effect = lower value; inhibition of EC80 agonist-evoked calcium signal; AID 624415; 390,000 tested, 0.02% active; activity change, negative = inhibition, % (concentration not given with the values); Q9GZU1; in the data active means activity change below about -50%; inconclusive means about -30% to -50%; inactive means above about -30%;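 note: stimulus is agonist 54-4 at its EC80 concentration; % is set by controls: 0 for no effect and ±100 for the full control effect; compound concentration not given in the record; the text of the record puts the active cut at -80%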
Target sequence (Q9GZU1 whole entry, looked up): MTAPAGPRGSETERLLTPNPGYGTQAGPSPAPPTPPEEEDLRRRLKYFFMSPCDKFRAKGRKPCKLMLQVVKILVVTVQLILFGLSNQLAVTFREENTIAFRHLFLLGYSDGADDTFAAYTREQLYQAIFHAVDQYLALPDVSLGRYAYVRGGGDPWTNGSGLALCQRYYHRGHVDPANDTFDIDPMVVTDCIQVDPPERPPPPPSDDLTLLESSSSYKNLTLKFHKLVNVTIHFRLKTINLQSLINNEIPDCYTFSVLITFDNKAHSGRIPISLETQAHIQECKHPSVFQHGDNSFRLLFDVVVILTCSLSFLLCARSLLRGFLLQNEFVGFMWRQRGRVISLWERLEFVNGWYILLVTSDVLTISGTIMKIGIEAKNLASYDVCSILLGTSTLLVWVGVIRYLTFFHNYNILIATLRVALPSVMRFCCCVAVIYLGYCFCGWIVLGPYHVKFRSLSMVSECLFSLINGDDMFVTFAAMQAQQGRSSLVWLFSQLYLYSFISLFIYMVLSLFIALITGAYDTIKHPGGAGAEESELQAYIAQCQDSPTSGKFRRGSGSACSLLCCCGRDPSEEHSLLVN
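Tet-induced TRPML1-DL cells loaded with Ca8 no-wash calcium dye were read kinetically on FDSS. Compound addition was followed by EC80 agonist 54-4 (4 uM final); inhibition was read over 110 s.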
ClpP mod = qHTS Assay for Activators of ClpP | AID 651965, 2013 | purified B. subtilis ClpP, FRET peptide cleavage, 20 min | Potency, µM (top dose mostly 57.5 µM), without a hit: at the top dose activity change, negative = active | 340,000 tested, 1.9% active; active = well fitted falling curve with a large enough effect; inconclusive = small, poorly fitted or top-dose-only effect; inactive = no such curve, though single readings can be large or run the other way; note: potency is the fitted concentration of half-maximal effect; the source files actives as falling curves though it sought activators and does not explain the sign; nearly all actives have a fitted effect of over 65% in size; many hits overshoot -100%
Target sequence (P80244 whole entry, looked up): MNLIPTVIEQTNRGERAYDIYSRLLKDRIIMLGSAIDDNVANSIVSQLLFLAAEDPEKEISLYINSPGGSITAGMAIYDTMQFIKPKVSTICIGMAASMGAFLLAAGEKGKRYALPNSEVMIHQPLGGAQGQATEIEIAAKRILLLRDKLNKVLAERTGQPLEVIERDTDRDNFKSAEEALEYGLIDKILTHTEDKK
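Purified B. subtilis ClpP, 10 microg/mL final in Tris/HCl pH8 with KCl, BSA, glycerol and Tween-20, cleaved an Abz/nitrotyrosine-quenched decapeptide. Fluorescence (ex 320, em 430) was read at 0 and 20 min at room temperature. Delta was normalized to 5.8 microM ADEP and DMSO/no-enzyme controls.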
gsp antagonist = antagonists of gsp mutant (McCune-Albright syndrome); gsp-mutant cells, cAMP HTRF, 30 min; control for the full effect not named in the record; Potency, µM (top dose mostly 76.9 µM), inactives show at the highest dose activity change, negative = inhibition, hits mostly inhibitors; 340,000 tested, 0.4% active; AID 624288; active = falling curve of any shape with a large fitted effect; inconclusive = falling curve, mostly with a smaller effect; inactive = flat or rising curve; cell line not stated here;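 note: intracellular cAMP measured with PDE inhibitor Ro 20-1724 present during compound exposure; potency is the fitted concentration of half-maximal effect; % is set by controls: 0 for no effect and ±100 for the full control effect; nearly all actives have a fitted effect of over 65% in size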
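Cells in G418 medium, seeded 16-24 h, 37C; buffer exchange to DPBS + 1 mM CaCl2, 0.5 mM MgCl2, 0.05% BSA; cpds in DMSO + […] (300 uM stock), 30 min 37C; HTRF cAMP detection.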
TRPML1 agonist = human mucolipin-1 channel agonism. Q9GZU1. TRPML1-expressing cells, Ca2+ dye fluorescence, FDSS; host cell line not named in the record; reference of the full effect not given here. activation, % (no concentration beside the values). 410,000 tested, 0.12% active. AID 624414; in the data active = activation above about 50%; inconclusive = about 30% to 50%; inactive = below about 30%; note: 0% is about no effect; the text of the record puts the active cut at 80%
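Tetracycline-induced TRPML1-DL cells are seeded and incubated overnight before loading with a no-wash Ca2+ dye and quencher. Agonist activity is taken from the 110 s fluorescence read following compound pin-transfer on an FDSS, before EC80 54-4 challenge.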
Menin MLL FP FL = displaces fluorescein MLL peptide from human menin; Fluorescence polarization, fluorescein-MLL peptide displacement from menin; 290,000 tested, under 10 active; AID 1766; FP activity change, % at 61.4 µM; inconclusive = falling polarisation curve, or a change in total fluorescence; inactive = total fluorescence flat and polarisation flat or rising; no compound was filed as active; the % refers to the polarisation; negative = inhibition;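 note: % of control where 0% means no effect; inhibitors lower the polarisation; unlabelled MLL peptide was the positive control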
gsp ag = activates gsp, the McCune-Albright syndrome mutation; gsp mutant cells, cAMP HTRF, 30 min; control for the full effect not named in the record; 340,000 tested, 0.13% active; Potency, µM (top dose mostly 76.9 µM), inactives show top-dose activation (cAMP increase), hits mostly activators; active = well fitted activation curve with a large enough effect; inconclusive = small, poorly fitted or top-dose-only effect, or another doubt; inactive = no such curve, though single readings can be large or run the other way; cell line not stated here;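 note: phosphodiesterase inhibitor Ro 20-1724 added with compounds to block cAMP breakdown; potency is the fitted concentration of half-maximal effect; nearly all actives have a fitted effect of over 60% in size; about a fifth of the inactives were tested at one dose only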
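Cells stably selected in G418 were plated at 2000/well, grown 16-24 hr, then given compounds in DMSO with the PDE inhibitor […] (300 uM solution added) for 30 min at 37C; cAMP was read by HTRF.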
* marks the source's active call; other numbers are inactive results; ? = inconclusive; · = not tested or not shown; & = joins results of further samples; [ ] = another dose, or the depositor's remark.

SMILES	TRPML1 blocker	ClpP mod	gsp antagonist	TRPML1 agonist	Menin MLL FP FL	gsp ag
O=C(NNc1ccccc1F)c1ccccc1	22	·	0%	-0.1	0.8	5%
CCNC(=O)CN(c1ccc(Br)c(C)c1)S(C)(=O)=O	2	·	11%	-0.7	0.9	5%[15.4 µM]
Oc1ccc(Br)cc1-c1cc(-c2ccco2)[nH]n1	-6	-2.9%	-6%	0.0	0.4	1%
O=[N+]([O-])c1ccc(N/N=C/c2ccc(OCc3cccc4ccccc34)cc2)nc1	-7	·	6%	3.7	-0.2	-1%[15.4 µM]
CC(C)CC(=O)Nc1nnc(SCC(=O)Nc2nccs2)s1	3	0.6%	10%	0.6	4.2	4%
CCC(C)(C)NC(=O)C(c1cccc(OC)c1OC)N(CC(C)C)C(=O)CCC(=O)Nc1cc(C)on1 (stereo unspecified)	-4	·	-5%	-0.3	-5.5	-4%[15.4 µM]
Cc1ccc2oc(C(=O)N3CCN(CCO)CC3)c(C)c2c1	-6	-2.2%	-1%	0.3	-1.2	10%[15.4 µM]
Cc1ccc(CC2CC(=O)N(c3nc4ccccc4n3C)C2=O)cc1 (stereo unspecified)	-1	0.1%	-8%	-0.1	1.2	3%
Cc1ccc(S(=O)(=O)/N=c2\scc(C)n2C)cc1	-9	-1.7%	-5%	-0.1	·	-19%
Cc1ccc(CCNC(=O)c2ccc3c(c2)N(Cc2cccc(Cl)c2)C(=O)c2ccccc2S3(=O)=O)cc1	-4	0.5%	·	0.5	·	·
CC(C)N(C(=S)Nc1cccnc1)c1ccccc1	-19	-3.7%	10%	-0.7	-0.3	9%
COC(=O)/C(=C\C(=O)c1ccc([N+](=O)[O-])cc1)Nc1ccc(OC)cc1	29	·	-10%	1.5	-1.7	-5%[15.4 µM]
COc1cccc(NC(=O)c2nn(C)cc2Br)c1	-13	1.0%	15%	-0.7	·	1%
CCc1cccc(OCC(=O)Nc2ccc(S(=O)(=O)Nc3onc(C)c3C)cc2)c1	7	-0.5%	-10%	-0.4	1.3	6%
Cc1nnc(SCC2=C(C(=O)O)N3C(=O)C(NC(=O)Cn4ncc(Cl)c4C)C3SC2)s1 (stereo unspecified)	-18	·	12%	0.1	5.2	?
CCOc1ccc(N2CC(C(=O)Nc3nnc(SCCOC)s3)CC2=O)cc1 (stereo unspecified)	13	·	-4%	-0.9	5.1	9%[15.4 µM]
CC(C)(C)[C@H]1COC(=O)[C@H](NC(=O)OCC2c3ccccc3-c3ccccc32)C/C=C\C[C@@H](CC(=O)N[C@@H](CO)Cc2ccccc2)C(=O)N1	-25	-5.9%	-13%	-0.1	·	?
O=C(COC(=O)CC1CCCC1)Nc1cccc(F)c1	-5	-1.3%	9%	0.0	·	-15%
COc1ccccc1OCC(=O)NCC(c1cccs1)N1CCOCC1 (stereo unspecified)	-7	0.5%	-7%	-0.4	2.0	-27%
CN1C(=O)/C(=C\c2ccco2)N=C1c1ccc(Cl)cc1Cl	-13	·	6%	2.8	6.0	11%
CCc1nc2ccccc2n1CCC(=O)O	46	-3.0%	6%	0.1	0.6	?
CC(=O)NCCNC(=O)c1ccc(Cn2c(=O)[nH]c3ccsc3c2=O)cc1	27	·	7%	1.0	-7.5	31%
CC(=O)c1cn(CC(=O)Nc2ccccc2)c2ccccc12	-1	-1.8%	-8%	2.0	0.5	6%
CCCN1CCc2c(sc(NC(=O)Cc3ccc(F)cc3)c2C(N)=O)C1	17	-3.8%	11%	0.3	3.2	?
COc1cc(/C=C/c2ccccc2)cc(OC)c1	16	·	-5%	-0.6	·	4%

Among those listed so far, these have a COOH group.
SMILES	TRPML1 blocker	ClpP mod	gsp antagonist	TRPML1 agonist	Menin MLL FP FL	gsp ag
Cc1nnc(SCC2=C(C(=O)O)N3C(=O)C(NC(=O)Cn4ncc(Cl)c4C)C3SC2)s1 (stereo unspecified)	-18	·	12%	0.1	5.2	?
CCc1nc2ccccc2n1CCC(=O)O	46	-3.0%	6%	0.1	0.6	?

Further records follow:
SMILES	TRPML1 blocker	ClpP mod	gsp antagonist	TRPML1 agonist	Menin MLL FP FL	gsp ag
COc1ccccc1-c1coc2c(CN3CCCCC3C)c(O)ccc2c1=O (stereo unspecified)	-4	3.9%	4%	0.0	-6.7	-3%
Cc1cc(N)nc(SCC(=O)N2C(C)CCCC2C)n1 (stereo unspecified)	6	·	5%	0.5	-2.7	2%
Cc1ccc(C(=O)c2sc(Nc3ccc(F)cc3)c(C#N)c2N)cc1	-14	-9.2%	·	2.1	·	·
COc1ccccc1Nc1nc(NCCC(C)C)nc(N)c1[N+](=O)[O-]	4	-1.9%	0%	3.6	1.5	-27%
COc1ccccc1Sc1ccccc1/C=N/NC(N)=O	3	·	-7%	0.4	-3.4	-3%
COCC1CCN(C(=O)c2cc(COc3cccc4cnccc34)on2)CC1	1	3.6%	-22%	-0.4	·	36%
Cc1cc(C)nc(SCc2ccc(C(=O)N/N=C/c3cccc(O)c3O)cc2)n1	13	1.1%	-21%	0.2	18	-19%
Cc1[nH]c(=O)[nH]c(=O)c1S(=O)(=O)N1CCN(c2cccc(Cl)c2)CC1	-2&-7	-5.6%&-2.1%	-2%	0.1&-0.2	-2.5	8%
CSc1ccccc1NC(=O)CN(C)CC(=O)Nc1cc(C)ccc1C	7	·	-5%	0.0	4.8	-34%[inhibitor]
Cc1cc(C)c(S(=O)(=O)c2ccccc2C(C)C)c(=O)[nH]1	4	-1.3%	7%	-1.1	6.7	-4%[15.4 µM]
COc1ccc(S(=O)(=O)N2CCCC(C(=O)N3CCOCC3)C2)cc1C (stereo unspecified)	-11	-2.6%	1%	-0.4	2.8	20%
O=C(N/C(=C/c1ccco1)C(=O)N1CCCCC1)c1cccs1	2	1.2%	-5%	0.1	7.6	-9%
Cc1ccsc1C(=O)OCC(=O)c1ccc[nH]1	-5	-1.0%	8%	0.1	·	-13%
O=C(Nc1cccc(-c2nc3ncccc3o2)c1)c1cc2ccccc2o1	15	-2.2%	-25%	0.0	3.7	8%
COc1ccc(NC(=O)CN(C)C(=O)c2sc3ccccc3c2Cl)cc1	10	-2.1%	-6%	1.7	·	-9%[15.4 µM]
CCc1ccccc1N(c1nc(-c2ccc(OC)c(OC)c2)no1)c1nc(-c2ccc(OC)c(OC)c2)no1	-1	-2.5%	·	-0.7	·	·
O=C(O)c1ccc(CNC(=O)c2ccc3c(c2)C(=O)N(Cc2cccnc2)C3=O)cc1	?	-3.4%	-1%	0.9	·	?
Oc1cccc(-c2nc3ncccn3c2Nc2cccc(C(F)(F)F)c2)c1	42	4.1%	·	0.2	·	·
CCOC(=O)C1=C(Nc2ccc(C)cc2)CC(C)(O)C(C(=O)OCC)C1c1ccccc1 (stereo unspecified)	37	350%	11%	0.6	0.1	4%
COc1ccc(Cl)cc1N1C(=O)C2CCCN2C1c1ccc(F)cc1 (stereo unspecified)	-8	2.0%	-12%	0.5	1.5	15%
Cc1cc(C)c(C)c(OCC(=O)O/N=C(\N)c2ccccn2)c1	8	0.1%	2%	2.0	1.1	?
O=c1c(-c2cccc([N+](=O)[O-])c2)[n+]([O-])c2ccccc2n1O	-5	0.1%	-7%	1.7	-0.6	?
COC(=O)CSc1nnc(-c2ccc(NS(=O)(=O)c3ccccc3)cc2)o1	3	-1.1%	-18%[15.4 µM]	1.1	-1.0	9%
C=CCO/N=C/C1C(=O)CC(C)(C)CC1=O	88	·	-5%	0.8	1.4	-21%[15.4 µM]
CCOC(=O)C1(C)C=C(Nc2ccc(C)cc2)C(=O)N1c1ccccc1 (stereo unspecified)	56	0.1%	·	1.4	·	·
Other entries follow:
SMILES	TRPML1 blocker	ClpP mod	gsp antagonist	TRPML1 agonist	Menin MLL FP FL	gsp ag
O=C(O)c1cc(C(=O)O)c(-c2ccccc2)c(C(=O)O)c1	15	0.3%	15%	0.0	3.5	1%
CCN(CC)CCCNC(=O)Cn1cc2c(n1)CCC(C)C2 (stereo unspecified)	12	0.4%	10%	0.2	1.0	?
CC(=O)Nc1ccccc1-c1nc2ccccc2n(CC(=O)Nc2cccc(C(F)(F)F)c2)c1=O	21	1.7%	·	2.9	·	·
COc1ccc(-c2cc(C(F)(F)F)n3nc(C(=O)NCc4ccco4)c(Cl)c3n2)cc1	80	-1.1%	-1%	3.3	4.6	1%
CCOC(=O)C1C(C#N)=C(N)OC(C)=C1c1ccncc1 (stereo unspecified)	-12	32µM*	8%	0.5	4.4	-3%
CCOC(=O)Cc1csc(NC(=O)c2cnc3scc(C)n3c2=O)n1	-6	-17%	19%	1.1	·	?
N/C(=N\OC(=O)COc1ccccc1)c1ccncc1	-1	0.2%	8%	-1.2	2.0	20%
O=C(CCNC(=O)Cn1ccc2ccccc2c1=O)NCCN1CCc2ccccc2C1	-7	-24%	5%	-0.4	3.7	-13%
Cc1ccc(NS(=O)(=O)c2cccc(C(=O)Nc3c(C)n(C)n(-c4ccccc4)c3=O)c2)cc1	3	-0.9%	4%	0.8	-0.4	-28%
Cc1c(S(=O)(=O)c2ccccn2)c(N)n(Cc2ccccc2)c1C	39	·	13%	2.1	?	-3%[15.4 µM]
COCCCNC(=O)CCNS(=O)(=O)c1ccc(C)cc1	-3	0.9%	5%	0.1	4.8	?
CC(NC(=S)Nc1ccccc1)C1COc2ccccc2O1 (stereo unspecified)	-13	·	-3%	1.8	1.7	-1%[15.4 µM]
COC(=O)c1ccc(/C=C(\C#N)c2nc3ccccc3s2)cc1	18	-1.1%	-6%	20	?	-40%[inhibitor]
Cc1cccc(C(=Cc2ccc([N+](=O)[O-])cc2)C(=O)O)c1	14	0.8%	·	-0.3	·	-41%[inhibitor]
CCOC(=O)N1CCN(C(=O)C2CCN(S(=O)(=O)CC)CC2)CC1	-26	0.3%	5%	-0.5	8.3	-4%
Fc1ccc(CSc2nnc(CN3CCOCC3)n2-c2ccccc2)c(Cl)c1	1	-0.6%	-23%	-0.7	1.1	18%
C(=C\n1nnc2ccccc21)/c1ccc[nH]1	4	-1.6%	7%	-0.2	·	?
C=CCc1ccccc1OCCn1ccnc1	-12	0.5%	13%	0.8	2.3	-24%
NC(=O)c1cc2cc(Cl)ccc2o/c1=N/NC(=O)c1cccs1	-16	·	-10%	0.9	-1.1	0%[15.4 µM]
CCn1cc(C(=O)NCc2cccnc2)c2cc(OC)c(OC)cc2c1=O	8	-19%	22%	3.3	-1.1	9%
CN(C)C(=O)/C(=C\c1cccc(Oc2ccccc2)c1)NC(=O)c1ccccc1	30	-15%	-8%	0.3	3.4	6%
COc1ccc(NC(=O)C2CCCN2C(=O)NC2CCCCC2)c(OC)c1 (stereo unspecified)	3	·	14%	-0.3	2.2	-14%
COc1ccc(CN2CCN(C(C)C(=O)N(C)Cc3cccc(F)c3)CC2)cc1OC (stereo unspecified)	-15	-1.4%	8%	1.0	·	-9%
CCOc1ncccc1C(=O)N1CCN(c2ccc(C(F)(F)F)cn2)CC1	7	·	5%	-0.4	2.0	-9%[15.4 µM]

Screening data: PubChem BioAssay, National Center for Advancing Translational Sciences (NCATS)
